Source: PubChem (National Center for Advancing Translational Sciences (NCATS))
VDR inhibitor – inhibitors of human vitamin D receptor | VDR-SRC2-3 peptide fluorescence polarization, 2 h | Potency, µM, inactives show max response, negative = inhibition, hits mostly inhibitors | AID 504847 | P11473 | 0.93% of 400,000 active; active means well fitted inhibition curve with a large enough effect; inconclusive means small, poorly fitted or top-dose-only effect, or another doubt; inactive means no such curve, though single readings can be large or run the other way; further: series mostly up to about 120 µM
Target sequence (P11473 whole entry, looked up): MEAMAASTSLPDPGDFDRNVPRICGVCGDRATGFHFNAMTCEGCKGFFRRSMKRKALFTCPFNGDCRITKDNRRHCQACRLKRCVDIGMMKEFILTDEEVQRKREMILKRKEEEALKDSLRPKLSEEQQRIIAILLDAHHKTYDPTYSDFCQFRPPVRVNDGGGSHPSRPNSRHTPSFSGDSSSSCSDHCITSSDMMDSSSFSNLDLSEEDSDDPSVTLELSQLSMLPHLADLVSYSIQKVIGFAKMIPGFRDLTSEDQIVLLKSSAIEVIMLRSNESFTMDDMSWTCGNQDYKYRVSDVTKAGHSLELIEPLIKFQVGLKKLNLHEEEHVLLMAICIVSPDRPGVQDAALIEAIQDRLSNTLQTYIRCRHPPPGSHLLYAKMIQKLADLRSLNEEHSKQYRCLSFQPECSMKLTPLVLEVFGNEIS
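Measured by FP: displacement of SRC2-3 coactivator peptide from VDR by library compounds, following a two-hour ambient incubation.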
The depositor's hits bear a star; & = joins results of further samples. On the % scale 0 is the no-effect control and ±100 the full control effect; potency means the concentration at half of the fitted maximal effect. This is a subset (hit frequency here may not be typical).

Results for CC1(C)CC[C@]2(C(=O)O)CC[C@]3(C)C(=CCC4[C@@]5(C)CC[C@H](O)C(C)(C)C5[C@H](O)C[C@]43C)C2C1 (stereo not given in full) ?
VDR inhibitor: -6%

What do the screens show for `CCOC(=O)N1CCN(S(=O)(=O)c2ccc3[nH]c(=O)oc3c2)CC1`?
VDR inhibitor: -4%

What do the screens show for `COc1ccc(OC)c(NC(=O)c2cnc(Nc3ccc(C)c(Cl)c3)c3ccccc23)c1`?
VDR inhibitor: 6%

Results for COc1ccccc1CNC(=O)CN(C)S(=O)(=O)c1ccc2c(c1)c(=O)n(C)c(=O)n2C ?
VDR inhibitor: -9%

How did COc1ccccc1CN(C)CC(=O)Nc1cccc2ccccc12 do in these assays?
VDR inhibitor: 3%

How did CCn1cc(CN2CCC(n3nccc3NC(=O)CCCc3ccccc3)CC2)c(C)n1 do in these assays?
VDR inhibitor: 2%

Results for CCn1c(=O)c2sccc2n(CC(=O)NC2CCCCC2)c1=O ?
VDR inhibitor: 8%

Results for CC(C)CCCC(C)C1CC(=O)C2=C3CCC4CC(O)CCC4(C)C3CCC21C (stereo not given) ?
VDR inhibitor: 5%

How did COc1ccc(-c2cc(C(=O)Oc3ccc(C#N)cc3)no2)cc1 do in these assays?
VDR inhibitor: 8%

How did Cc1ccc(OCCOc2ccc(Cl)cc2Cl)c([N+](=O)[O-])n1 do in these assays?
VDR inhibitor: 12%

What do the screens show for `Cn1c(=O)c(=O)n(C)c2cc(S(=O)(=O)N3CCC(Cc4ccccc4)CC3)ccc21`?
VDR inhibitor: -11%

How did COc1ccc(CCN2C(=O)C(Oc3ccccc3C)C2c2ccc3c(c2)OCO3)cc1 (stereo not given) do in these assays?
VDR inhibitor: -11%

How did CC(C)C(=O)N1CCN(c2ccccc2NC(=S)NC(=O)c2ccco2)CC1 do in these assays?
VDR inhibitor: 1%

What do the screens show for `COc1ccc(F)c(CN2CCN(CCc3ccccc3)C(CCO)C2)c1` (stereo not given)?
VDR inhibitor: 7%

How did c1ccc(NCc2ccncc2)cc1 do in these assays?
VDR inhibitor: -21%

How did CC1(C)OC(=O)N(CCC(=O)Nc2cccc(F)c2)C1(C)O (stereo not given) do in these assays?
VDR inhibitor: -14%

How did COc1ccc(Cn2c(C)nc3ccc([N+](=O)[O-])cc3c2=O)cc1 do in these assays?
VDR inhibitor: -9%

How did COc1ccc2nc3oc(C(=O)NCc4cccs4)cc3cc2c1 do in these assays?
VDR inhibitor: -17%

How did CC1CCCN(c2nc3c(S(=O)(=O)c4ccc(C(C)C)cc4)nnn3c3ccsc23)C1 (stereo not given) do in these assays?
VDR inhibitor: 1%

How did CC1=C(C(=O)Nc2cccnc2)C(c2ccc(F)cc2)n2nc(SCc3ccccc3)nc2N1 (stereo not given) do in these assays?
VDR inhibitor: -11%

Results for COc1ccc(SCCc2ccncc2)cc1 ?
VDR inhibitor: -8%

How did O=C(c1ccco1)n1nc(-c2ccccc2)nc1NCc1ccc(Cl)cc1 do in these assays?
VDR inhibitor: -5%

What do the screens show for `Fc1cccc(NC(=S)N2CCN(c3ccccn3)CC2)c1`?
VDR inhibitor: -8%

What do the screens show for `COc1ccccc1NS(=O)(=O)c1cc(NC(=O)CN2C(=O)NC3(CCCC3)C2=O)ccc1C`?
VDR inhibitor: -16%

How did COC1=CC(=O)C(O)=C/C1=C\C=C\c1ccccc1 do in these assays?
VDR inhibitor: 2.8µM*

What do the screens show for `Cc1cc(C)c(NC(=O)CN(C)C(=O)c2ccc(OCc3ccccc3)cc2)c(C)c1`?
VDR inhibitor: -31%

Results for CCCOc1ccc2cc(-c3ccccn3)c(=O)oc2c1 ?
VDR inhibitor: 10%

What do the screens show for `CCOc1ccc(C(=O)NC2CCN(C(=O)N3CCCC3)CC2)cc1`?
VDR inhibitor: 1%

Results for COc1ccc(C)cc1NC(=O)c1cccc(C(=O)Nc2cc(C)ccc2OC)c1 ?
VDR inhibitor: -19%

What do the screens show for `Cc1ccc(NC(=O)NCC2CC2(Cl)Cl)cc1` (stereo not given)?
VDR inhibitor: -11%

How did CCCCc1ccc(-n2nc3ccc(NC(=O)c4cc5ccccc5o4)cc3n2)cc1 do in these assays?
VDR inhibitor: -23%

Results for O=c1cc(N2CCc3ccccc3C2)[nH]c(=O)n1Cc1ccc(F)cc1 ?
VDR inhibitor: 2%

What do the screens show for `O=C(Nc1ccccc1O)C(c1ccccc1)c1ccccc1`?
VDR inhibitor: 8%

Results for CC(=O)c1ccc(OCCCC(=O)OCC(=O)N2CCN(c3ccccc3)CC2)cc1 ?
VDR inhibitor: 11%

How did Cc1ccc(S(=O)(=O)N(C)C)cc1NC(=O)Cn1c(CN2CCOCC2)nc2ccccc2c1=O do in these assays?
VDR inhibitor: -13%

Results for Cc1ccccc1N1C(=O)C2C3CCC(O3)C2C1=O (stereo not given) ?
VDR inhibitor: -6%

How did Cc1nc(Cl)cc(N/N=C/c2ccc(O)cc2O)n1 do in these assays?
VDR inhibitor: -1%

How did COC(=O)c1ccc(CNC(=O)COC(=O)c2cc(Cl)ccc2O)cc1 do in these assays?
VDR inhibitor: 4%

How did COc1cc(C2CC(=O)c3c(ccc4ccccc34)N2)ccc1O (stereo not given) do in these assays?
VDR inhibitor: 10%

Results for CC(CNC(=O)Cn1ccc2cc(S(=O)(=O)N3CCCC3)ccc21)c1ccccc1 (stereo not given) ?
VDR inhibitor: 11%

Results for Cc1ccc(OC(C)C(=O)Nc2ccncc2)cc1 (stereo not given) ?
VDR inhibitor: -23%

What do the screens show for `O=C(C1=C(O)C(=O)N(CCCN2CCOCC2)C1c1ccc(Cl)cc1)c1cc2ccccc2o1` (stereo not given)?
VDR inhibitor: -10%

Results for C=CCNC(=O)CN1CCN(Cc2ccc3c(c2)OCO3)CC1 ?
VDR inhibitor: -14%

How did N#CC1=C(S)N(c2ccccc2)C(c2ccc(-c3cccc(Cl)c3)o2)NC1=O (stereo not given) do in these assays?
VDR inhibitor: inconclusive

What do the screens show for `Cn1nc(C(C)(C)C)c([N+](=O)[O-])c1C(=O)N1CCCCCC1`?
VDR inhibitor: -24%

How did CCC(=O)N1CCc2cc(S(=O)(=O)NC(CC(C)C)C(=O)NCc3cccc(OC)c3)ccc21 (stereo not given) do in these assays?
VDR inhibitor: 6%

How did Nc1c(C(=O)N/N=C/c2ccc([N+](=O)[O-])cc2)cnn1-c1ccccc1 do in these assays?
VDR inhibitor: 0%

How did COc1ccc(CCNC(=O)CCn2c(=O)c3cccn3c3cccnc32)c(OC)c1OC do in these assays?
VDR inhibitor: 1%

Results for CCCC[C@@H]1CCCO[C@@](C(=O)NCc2ccc(S(C)(=O)=O)cc2)(C(F)(F)F)C1 ?
VDR inhibitor: -17%

How did CC(=O)c1c(N)nc2n(c1=O)CCCCC2 do in these assays?
VDR inhibitor: -14%

What do the screens show for `Cc1ccc2c(c1)[C@H]1OCC[C@H]1[C@@H](c1ccncc1)N2`?
VDR inhibitor: 0%

What do the screens show for `O=C1c2cc([N+](=O)[O-])ccc2-c2cc(Cl)c(NC(=O)C(F)(F)F)cc21`?
VDR inhibitor: -11%

Results for Cc1ccc2oc(C(=O)NCC(c3ccco3)N(C)C)c(C)c2c1 (stereo not given) ?
VDR inhibitor: -5%

What do the screens show for `COc1cccc(-c2sc3ccc(OC)cc3c2-c2ccc(O)cc2)c1`?
VDR inhibitor: -8%

What do the screens show for `O=S(=O)(c1ccc(Cl)cc1)N1CCCC(c2nc(-c3ccc(F)cc3)no2)C1` (stereo not given)?
VDR inhibitor: -20%

How did CC1(C(=O)CSc2nc3ccccc3s2)CCC(=O)O1 (stereo not given) do in these assays?
VDR inhibitor: inconclusive

Results for Cc1cc(C)c(NC(=O)CN(c2ccccc2)S(=O)(=O)N(C)C)c(C)c1 ?
VDR inhibitor: 14%&7%

Results for CCCCn1c(SCC(=O)N2c3ccccc3Sc3ccccc32)nc2c1c(=O)n(C)c(=O)n2C ?
VDR inhibitor: -7%

Results for Cc1ccc(-c2[nH]c3ccccc3c2SCCN)cc1 ?
VDR inhibitor: 7%

What do the screens show for `O=C(COC(=O)c1ccc(S(=O)(=O)NCc2ccco2)cc1)Nc1ccc(Cl)cn1`?
VDR inhibitor: -24%

Among those listed so far, two contain a CF3 group.
Results for CCCC[C@@H]1CCCO[C@@](C(=O)NCc2ccc(S(C)(=O)=O)cc2)(C(F)(F)F)C1 ?
VDR inhibitor: -17%

What do the screens show for `O=C1c2cc([N+](=O)[O-])ccc2-c2cc(Cl)c(NC(=O)C(F)(F)F)cc21`?
VDR inhibitor: -11%

Other records follow.
Results for CCOC(=O)Cc1csc(NC(=O)c2cnc3scc(C)n3c2=O)n1 ?
VDR inhibitor: -7%

Results for CCOC(=O)C(Cc1cc(N)c(Oc2ccc(OC)cc2)c(N)c1)NC(C)=O (stereo not given) ?
VDR inhibitor: 6%

Results for COc1ccc(-c2[nH]c(-c3cccc(OC)c3)nc2SCC(=O)NCc2ccco2)cc1 ?
VDR inhibitor: -1%

Results for CC(C)(C)NC(=O)CN(C(=O)CCC(=O)Nc1nccs1)c1cccc(C(F)(F)F)c1 ?
VDR inhibitor: -16%

What do the screens show for `Cc1ccc(C(=O)N/C(=C/c2ccco2)C(=O)NCC2CCCO2)cc1` (stereo not given)?
VDR inhibitor: -16%

How did O=C(Nc1ccc(F)c(Cl)c1)C1CCCN(c2cnccn2)C1 (stereo not given) do in these assays?
VDR inhibitor: -6%&-1%

What do the screens show for `CSCCC(NS(=O)(=O)c1ccc2c(c1)oc(=O)n2C)C(=O)NCc1ccc(Cl)cc1` (stereo not given)?
VDR inhibitor: 19%

Results for O=C(CC(C(=O)O)P(=O)(c1ccccc1)c1ccccc1)c1ccc(Br)cc1 (stereo not given) ?
VDR inhibitor: 2%

How did CCOC(=O)c1c(C)n(C)c2ccc(OC)c(NC(=O)CN3CCN(C4CCCCC4)CC3)c12 do in these assays?
VDR inhibitor: -8%

How did Cc1ccc(NC(=O)CCNC(=O)c2ccccc2Cl)cc1S(=O)(=O)N1CCCCCC1 do in these assays?
VDR inhibitor: -20%

How did C(=N\Nc1nc(-c2ccccc2)cs1)/c1ccncc1 do in these assays?
VDR inhibitor: 10%

What do the screens show for `Cc1[nH]c(=O)[nH]c(=O)c1S(=O)(=O)N1CCCC(C(=O)NCCc2ccccc2)C1` (stereo not given)?
VDR inhibitor: 3%

What do the screens show for `C[C@@H](C(=O)Nc1ccc2ccccc2c1)[C@H]1C[C@]1(C)[C@H](NS(=O)(=O)c1ccccc1)c1ccccc1`?
VDR inhibitor: -3%

What do the screens show for `Cc1ccc(NC(=O)COC(=O)CCC(=O)c2cccs2)cc1S(=O)(=O)N1CCOCC1`?
VDR inhibitor: 0%

Results for CCOc1ccc(C(=O)NCC(=O)OCc2nnc(-c3ccccc3)o2)cc1OCC ?
VDR inhibitor: -4%

How did Cn1cc(-c2nc3cncnc3n(Cc3ccccc3Cl)c2=O)c2ccccc21 do in these assays?
VDR inhibitor: 0%

What do the screens show for `O=S(=O)([N-]c1nc2ccccc2nc1-n1cc[n+](Cc2ccccc2)c1)c1ccc(Cl)cc1`?
VDR inhibitor: 6%

Results for C=CCn1c(C)cc(C(=O)CSc2nnc(-c3cccc(S(=O)(=O)N(CC)CC)c3)o2)c1C ?
VDR inhibitor: -5%

How did COc1cc([C@@H]2CC=C(C(=O)O)[C@H](c3ccc(Cl)cc3)N2S(=O)(=O)c2ccc(C)cc2)cc(OC)c1OC do in these assays?
VDR inhibitor: -11%

How did CC1CCN(S(=O)(=O)c2ccc3c(c2)c(=O)c(C(=O)N2CCN(c4cccc(Cl)c4)CC2)cn3C)CC1 do in these assays?
VDR inhibitor: -9%

3 structures out of the list, arranged by formula weight, falling.
What do the screens show for `O=S(=O)([N-]c1nc2ccccc2nc1-n1cc[n+](Cc2ccccc2)c1)c1ccc(Cl)cc1`?
VDR inhibitor: 6%

How did CCOC(=O)c1c(C)n(C)c2ccc(OC)c(NC(=O)CN3CCN(C4CCCCC4)CC3)c12 do in these assays?
VDR inhibitor: -8%

Results for O=C(CC(C(=O)O)P(=O)(c1ccccc1)c1ccccc1)c1ccc(Br)cc1 (stereo not given) ?
VDR inhibitor: 2%

Retrieved by structure from the list above, 4 records:
How did Cc1ccc(OCCOc2ccc(Cl)cc2Cl)c([N+](=O)[O-])n1 do in these assays?
VDR inhibitor: 12%

How did CC1CCN(S(=O)(=O)c2ccc3c(c2)c(=O)c(C(=O)N2CCN(c4cccc(Cl)c4)CC2)cn3C)CC1 do in these assays?
VDR inhibitor: -9%

Results for CCOc1ccc(C(=O)NCC(=O)OCc2nnc(-c3ccccc3)o2)cc1OCC ?
VDR inhibitor: -4%

How did Cc1ccc(S(=O)(=O)N(C)C)cc1NC(=O)Cn1c(CN2CCOCC2)nc2ccccc2c1=O do in these assays?
VDR inhibitor: -13%

(continued)
What do the screens show for `O=C1C2C(C(=O)N1CCc1ccccc1)C1C=CC2C12CC2` (stereo not given)?
VDR inhibitor: 8%

What do the screens show for `Cc1ccc2oc3c(c(=O)c2c1)C(c1ccc(F)cc1)N(Cc1ccc2c(c1)OCO2)C3=O` (stereo not given)?
VDR inhibitor: -16%

What do the screens show for `C=CCn1c(SCc2nc3ccccc3[nH]2)nnc1-c1ccncc1`?
VDR inhibitor: -11%

What do the screens show for `CN(C)c1ccc(S(=O)(=O)NCC(=O)NCCC2=CCCCC2)cc1[N+](=O)[O-]`?
VDR inhibitor: 7%

What do the screens show for `CN1CCN(c2ncc3nc(-c4cc(F)cc(F)c4)c(=O)n(C4CC4)c3n2)CC1`?
VDR inhibitor: 3%

How did CC1CC(C)CN(C(=O)c2cccc(S(=O)(=O)N(C)c3ccccc3)c2)C1 (stereo not given) do in these assays?
VDR inhibitor: -17%

What do the screens show for `CCOC(=O)c1[nH]cnc1N=Nc1c(O)ccc2ccccc12`?
VDR inhibitor: 8%

Results for NC(=O)CC(NC(=O)Cc1ccc(Br)cc1)c1ccc(NC2CCC2)c([N+](=O)[O-])c1 (stereo not given) ?
VDR inhibitor: -6%

How did CC(=O)c1ccc(NC(=O)[C@@]2(CC(=O)O)CC(/C=C/c3ccccc3)=NO2)cc1 do in these assays?
VDR inhibitor: 12%

Results for COc1ccccc1CNC(=O)C1CCN(c2nn3c(=O)cc(C)nc3s2)CC1 ?
VDR inhibitor: -2%

Results for COc1ccc(COCC(O)CN2CC(C)OC(C)C2)cc1OC (stereo not given) ?
VDR inhibitor: 3%
